Screens: PubChem, several laboratories
CBX7 inh: inhibitors of human CBX7 binding to H3K27me3 peptide. O95931. AlphaScreen His6-CBX7 / biotin-H3K27me3 peptide binding; hits give low values. normalised signal (fraction of DMSO) (no concentration beside the values). 1.1% of 66,000 active; in the data active means normalised signal below about 0.5;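 further: 100 nL library stock added to about 20 µL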
Target sequence (O95931 whole entry, looked up): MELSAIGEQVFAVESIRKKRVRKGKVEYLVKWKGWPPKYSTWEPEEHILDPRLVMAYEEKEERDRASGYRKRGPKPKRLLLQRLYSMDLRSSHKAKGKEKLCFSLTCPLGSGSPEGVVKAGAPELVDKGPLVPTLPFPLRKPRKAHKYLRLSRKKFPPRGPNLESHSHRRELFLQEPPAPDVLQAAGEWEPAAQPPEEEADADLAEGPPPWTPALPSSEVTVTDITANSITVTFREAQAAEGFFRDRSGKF
CBX7 inh z-score: also measured in CBX7 inh; calls as there; z-score; measured here: z-score of CBX7 signal; some inactives read as strong as hits; reference of the scale not given here;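 same signal on another scale; lower means less binding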
* hit, by the source's call; & = joins results of further samples.

SMILES	CBX7 inh	CBX7 inh z-score
COc1ccc(C(=O)Nc2nc(C(F)(F)F)c(-c3ccc(F)cc3)s2)cc1OC	0.92&1.2	-1.3&1.9
NC(=O)CCn1nc(-c2ccc(Cl)cc2)c2ccccc2c1=O	0.99	-0.37
CCOc1ccc(CCNC(=O)CN2C(=O)COc3ccc(S(=O)(=O)N4CCCC4)cc32)cc1	1	0.36
CCOC(=O)C1CCCN(c2c(N3CCCC3)c(=O)c2=O)C1 (configuration not stated)	0.99	-0.29
CC1CCN(c2nc3ccc(C(=O)NCC(C)c4ccccc4)cc3s2)CC1 (configuration not stated)	1	-0.1
CC(C)(C)n1cnc2cc(NCc3cccc4ccccc34)ccc21	0.6	-7.9
Cc1ccccc1CN1C(=O)c2ccccc2S(=O)c2ccc(C(=O)N(C)CCC#N)cc21 (configuration not stated)	1	0.82
Clc1ccc(-c2nnc(-c3ccncc3)o2)c(Cl)c1	1	0.075
Cc1c(Cl)cccc1NC(=O)c1cc(-c2ccc3c(c2)OCO3)on1	1	0.49
CCN(CCN(C)C)C(=O)Cn1ncc2c1-c1ccccc1OC2	1	0.2
COCCNc1nc(-c2ccccc2)nc2ccccc12	1.2	1.6
O=C(NCc1ccccc1)c1cc(=O)nc2sc(-c3ccccc3)nn12	0.92	-0.88
CCOc1ccc(-n2nc(C(=O)Nc3cccc(C(F)(F)F)c3)c3ccccc3c2=O)cc1	1	0.18
O=c1c2ccccc2nc(/C=C/c2ccc(Br)cc2)n1CCCO	0.88	-0.12
C=CCNC(=O)c1ccc2c(c1)N(Cc1cc(C)ccc1C)C(=O)c1ccccc1S2	0.99	-0.34
O=S(=O)(c1ccccc1)c1nc(-c2ccc(Br)cc2)oc1N1CCOCC1	1	0.097
Cc1ccc(-c2nnc(NC(=O)c3cccc(Cl)c3)s2)cc1	1	0.43
CCN(CC)S(=O)(=O)c1ccc2c(c1)N(CC(=O)NC(C)C)C(=O)CO2	1.1	0.98
CC(C)c1ccc(NC(=O)c2cn(C3CCCC3)c(=O)c3c2c2ccccc2n3C)cc1	0.99	-0.37
COc1ccc(CCn2c(=O)c3cccnc3n(CC(=O)Nc3ccccc3F)c2=O)cc1OC	1	0.32
CC1CCN(CCCNC(=O)CN2C(=O)CSc3ccccc32)CC1	1	0.63
Cc1cc(C)n(-c2nc3ccccc3nc2Nc2ccc(Br)cc2F)n1	1.1	2.9
Cc1nc2cc(-c3ccccc3)nn2c(C)c1CCC(=O)Nc1ccc(F)cc1	1	0.73
COc1cc2c(c(OC)c1)C(c1ccc(C)cc1)CC(=O)N2 (configuration not stated)	1.1	0.9
O=C(Nc1cccc(-c2nc3ccccc3o2)c1)c1ccccc1Cl	1.1	0.86
COc1ccc(CNc2nc(SCc3cccc(F)c3)nc3ccccc23)cc1	1	0.44
O=C1CCc2cc(S(=O)(=O)NC(Cc3ccccc3)C(=O)NCC3CCCO3)ccc2N1 (configuration not stated)	1.1	0.69
Cc1ccc(CNC(=O)C(C)N2C(=O)COc3ccc(Cl)cc32)cc1 (configuration not stated)	0.62	-0.37
COc1ccc(Cn2c(CCC(=O)Nc3nc(C)cs3)nc3cccnc32)cc1	1	0.63
O=C1CN(C(=O)CCCc2ccccc2)C(c2ccccc2)c2cc(Br)ccc2N1 (configuration not stated)	0.68	-3.1
CN(CC(=O)Nc1cccc(F)c1)S(=O)(=O)c1cnc[nH]1	1	-0.047
O=C(O)c1[nH]c2ccccc2c1CC(=O)N1CCOCC1	1	1.5
COc1cc(OC)cc(-n2nc(C(=O)NCc3ccccc3OC)c3ccccc3c2=O)c1	0.99	-0.36
Cc1ccc(C)c2[nH]c(=O)c(CCNC(=O)c3c(F)cccc3Cl)cc12	1.1	0.13
Fc1ccccc1-c1nnn(Cc2ccccc2Cl)n1	1.1	3.2
COc1cccc(C(=O)Nc2c3c(nn2-c2cccc(Cl)c2)CSC3)c1	0.8	-3.4
O=C(CSc1oc(-c2ccccc2)nc1S(=O)(=O)c1ccccc1)NCC1CCCO1 (configuration not stated)	1	0.042
COc1ccc(-c2noc(CCC(=O)N3CCN(c4ccc(OC)cc4)CC3)n2)cc1	1	1.1
Cc1ccc2c(c1)-c1c(cnn1CC(=O)NCCOC13CC4CC(C)(CC(C)(C4)C1)C3)CO2	0.86	-2.7
Fc1ccc(-c2nc3ccc(C(F)(F)F)cc3nc2-c2ccc(F)cc2)cc1	1.1	0.34
Cc1cc(Nc2ccc(C)c(F)c2)n2ncnc2n1	0.93	-0.73
CC(NC(=O)c1ccccc1)c1nc2ccccc2n1C (configuration not stated)	1.1	0.86
Cc1cc(C)n2c(Nc3ccc(Cl)cc3)c(-c3ccc(Cl)cc3)nc2n1	1	0.049
CCc1ccccc1N(C)S(=O)(=O)c1ccc2[nH]cc(C(=O)N3CCCCCC3)c(=O)c2c1	0.97	-0.35
CCc1ccc2c(c1)c(=O)c(S(=O)(=O)c1ccc(C)c(C)c1)cn2CC(=O)Nc1ccc(F)cc1	0.79	-3
CC(=O)Nc1ccc2nc(NC(=O)c3ccc(C#N)cc3)sc2c1	1	0.11
CCCCN(CC)S(=O)(=O)c1ccc2c(c1)CCN2C(C)=O	1	0.35
CCCOc1ccccc1NC(=O)CC1Sc2ccc(C(F)(F)F)cc2NC1=O (configuration not stated)	0.99	-0.2
CCOc1ccccc1NC(=O)C1CCN(S(=O)(=O)c2cnc[nH]2)CC1	0.89	-1.3
COc1cccc(CNC(=O)c2cn(C3CCCC3)c(=O)c3c2c2ccccc2n3C)c1	0.99	-0.36
Cc1ccc(C)c(NC2c3ccccc3C(=O)N2Cc2ccccc2)c1 (configuration not stated)	0.94	-0.9
CCOCCCNC(=O)c1ccc2nc(-c3cccs3)c(-c3cccs3)nc2c1	1	0.037
Cc1ccc(-c2csc(NC(=O)COc3ccc(C)cc3Br)n2)cc1	1.2	1.1
COc1ccc(-c2nc(SCC(=O)Nc3ccc4c(c3)OCO4)c(-c3ccc(C)cc3)[nH]2)cc1	1	1.1
CC(C)CC1Nc2ccc(C(=O)NCCCN3CCCCC3C)cc2NC1=O (configuration not stated)	1.1	0.15
CCOc1ccccc1NC1c2ccccc2C(=O)N1c1cc(C)ccn1 (configuration not stated)	0.95	-1.8
Cc1cc2nc(-c3cccc(F)c3)c(-c3cccc(F)c3)nc2cc1C	1.4	2.9
Cc1cc(NCc2ccc3c(c2)OCO3)n2ncnc2n1	0.95	-0.96
CCCCOc1ccc(C(C)(O)C(CN2CCN(c3ccc(F)cc3)CC2)c2ccccc2)cc1 (configuration not stated)	0.59	-1.1
Cc1ccc(C)c(NC(=O)C2CCN(S(=O)(=O)c3c(C)noc3/C=C/c3cccs3)CC2)c1	1	0.051

Molecules listed so far that have bromine (five):
SMILES	CBX7 inh	CBX7 inh z-score
O=c1c2ccccc2nc(/C=C/c2ccc(Br)cc2)n1CCCO	0.88	-0.12
O=S(=O)(c1ccccc1)c1nc(-c2ccc(Br)cc2)oc1N1CCOCC1	1	0.097
Cc1cc(C)n(-c2nc3ccccc3nc2Nc2ccc(Br)cc2F)n1	1.1	2.9
O=C1CN(C(=O)CCCc2ccccc2)C(c2ccccc2)c2cc(Br)ccc2N1 (configuration not stated)	0.68	-3.1
Cc1ccc(-c2csc(NC(=O)COc3ccc(C)cc3Br)n2)cc1	1.2	1.1

Ordered by value in CBX7 inh z-score (rising): some entries from above.
smiles | CBX7 inh z-score
Cc1ccc(C)c(NC2c3ccccc3C(=O)N2Cc2ccccc2)c1 (configuration not stated) | -0.9
CCc1ccccc1N(C)S(=O)(=O)c1ccc2[nH]cc(C(=O)N3CCCCCC3)c(=O)c2c1 | -0.35
Cc1ccc(C)c(NC(=O)C2CCN(S(=O)(=O)c3c(C)noc3/C=C/c3cccs3)CC2)c1 | 0.051
Cc1ccc(-c2csc(NC(=O)COc3ccc(C)cc3Br)n2)cc1 | 1.1

(more compounds)
SMILES	CBX7 inh	CBX7 inh z-score
Cc1ccc(-c2nc(C(=O)Nc3cc(F)ccc3F)c(C)o2)cc1	0.85	-1.7
COc1ccccc1NC(=O)CSc1nccn1-c1cccc(Cl)c1	0.97	-0.45
O=C(NCC1CCCO1)c1cc(-c2ccccn2)nc2ccc(S(=O)(=O)N3CCOCC3)cc12 (configuration not stated)	0.98	-0.4
COc1ccc(CN2C(=O)CCC2(C)C(=O)NCCc2ccc(OC)c(OC)c2)c(OC)c1 (configuration not stated)	1.1	1.7
C=CCn1c(COc2ccc(OC)cc2)nc2ccccc21	1	0.56
CCC(C)NC(=O)Cn1cnc2sc(C)c(S(=O)(=O)N3CCC(C)CC3)c2c1=O (configuration not stated)	1.3	2.6
O=C(Nc1nnc(C(c2ccccc2)c2ccccc2)s1)c1ccccc1F	0.81	-0.78
COc1ccccc1C(=O)NCCc1c(C)[nH]c2c(C)ccc(F)c12	0.96	-0.077
O=C(Nc1ccc2oc(-c3ccncc3)nc2c1)c1cccc(Cl)c1	0.81	-3.3
Cc1c(C(=O)NC(C)c2ccccc2)oc2ccc(S(=O)(=O)N3CCCCCC3)cc12 (configuration not stated)	0.98	-0.32
CCc1ccc(-c2nc(CN3CCC(C(=O)N4CCOCC4)CC3)c(C)o2)cc1	1	0.41
O=C(O)Cn1c(Cc2ccccc2)nc2ccccc21	1	1.5
CC1CCCC(C)N1CCNC(=O)Cn1nc(-c2ccccc2)ccc1=O (configuration not stated)	1.1	1.3
Cc1ccc(C(C)C)c(OCC(=O)Nc2cccc(-c3nc4ncccc4o3)c2C)c1	1	0.0061
Cc1ccc(-n2ncc(C(=O)Nc3ccccc3)c2C2CCN(C(=O)OC(C)(C)C)CC2)cc1C	1	1.3
Cc1cccc(NC(=O)CC2Sc3ccc(C(F)(F)F)cc3NC2=O)c1 (configuration not stated)	0.94	-1.9
O=C(NCCCN1CCC(N2CCCCC2)CC1)c1cc(-c2cccnc2)nc2ccccc12	1.2	2.1
COCCNS(=O)(=O)c1ccc2c(c1)CCN2C(=O)CCC(=O)O	0.91	-1.5
Cc1ccc2cc(CCNC(=O)CCc3ccccc3)c(=O)[nH]c2c1	1.1	3.9
CCOc1ccc2c(c1)c(=O)c(S(=O)(=O)c1ccccc1)cn2Cc1cccc(C)c1	0.82	-3.4
CCCN(CCC)S(=O)(=O)c1ccc2c(c1)N(CC(=O)N(C)Cc1ccccc1)C(=O)CS2	0.56	-0.88
CN1CCN(C(=O)Cn2c(=O)n(C)c3ccccc32)CC1	0.99	-0.11
CCOc1ccc(NC(=O)c2nn(-c3ccc(OC)cc3)c(=O)c3ccccc23)cc1	0.9	-0.64
COc1cc2c(cc1OC)C1C(C(=O)Nc3ccc(C)c(F)c3)c3ccccc3C(=O)N1CC2 (configuration not stated)	0.97	-0.098
Cc1cccc(CSc2nc3ccncc3n2CC(=O)Nc2cccc(F)c2)c1	0.81	-2.7
COc1ccc(C(=O)c2cn(Cc3ccc(Cl)cc3)c3ccc(OC)cc3c2=O)cc1	0.66	-1.2
CCOC(=O)N1CCC(Nc2c(NCCN(C)C)c(=O)c2=O)CC1	1.1	0.97
O=S(=O)(c1ccc2ccccc2c1)N1CCN(c2nnc(-c3ccccc3)c3ccccc23)CC1	0.92	-2.1
CCc1ccc(NC(=O)C(CC(C)C)NS(=O)(=O)c2ccc3nc(C)sc3c2)cc1 (configuration not stated)	1	0.38
CCOC(=O)c1c(C)nc2nonc2c1N	0.95	-0.81
CCOc1ccc(CCNC(=O)CCc2nnc3ccc(N4CCOCC4)nn23)cc1OCC	1.1	2.6
CCN(CC)S(=O)(=O)c1ccc2c(c1)N(CC(=O)N1CCc3ccccc3C1)C(=O)CO2	1.1	1.4
O=S(=O)(Nc1ccc(Br)cc1)c1ccc2nc(-c3ccccc3)[nH]c2c1	0.75	-0.33
COc1ccc(N(C)C(=O)Cc2c(C(=O)O)[nH]c3ccc(Cl)cc23)cc1	1.1	1.9
CCN(CC)CCCNC(=O)Cn1cnc2sc(C)c(S(=O)(=O)N3CCC(C)CC3)c2c1=O	1	0.28
CCOC(=O)N1CCN(c2c(NCCCOC(C)C)c(=O)c2=O)CC1	1.1	2.5
COc1ccc(NC(=O)CC2NC3CCCCC3NC2=O)cc1 (configuration not stated)	0.98	-0.55
O=C(Nc1ccc2nc3n(c(=O)c2c1)CCCCC3)c1ccccc1Cl	1	1
COc1ccc(C2C(=O)N(CCc3ccccc3)CC(=O)N2C2CCCc3ccccc32)cc1 (configuration not stated)	0.79	-0.83
CCOCCCNC(=O)CN1C(=O)COc2ccc(S(=O)(=O)N3CCOCC3)cc21	1	1.2
CC1(C)CC(=O)c2c(oc3ccc(NS(=O)(=O)c4cccs4)cc23)C1	0.99	-0.058
CN(C(=O)c1cc2c(n(-c3ccccc3)c1=O)CC(C)(C)CC2=O)c1ccccc1	0.93	-0.95
O=C(Nc1ccc2oc(-c3cc(Cl)ccc3Cl)nc2c1)c1ccccc1	1	1.8
COc1ccc(-n2c3c(cc(C(=O)Nc4ccc(Cl)cn4)c2=O)C(=O)CC(C)(C)C3)cc1	1.1	0.22
CC(C(=O)c1ccccc1)C1(O)C(=O)Nc2ccccc21 (configuration not stated)	1	0.065
COc1cc(C)nc(Nc2nc(C)c3ccc(C)cc3n2)n1	1	-0.0049
Cc1cccc(CN2C(=O)CSc3ccc(C(=O)NCC4COc5ccccc5O4)cc32)c1 (configuration not stated)	0.97	-1.2
Cn1nc(CC(=O)Nc2cccc(F)c2)c2ccccc2c1=O	0.88	-1.7

Some values from above:
`CC1(C)CC(=O)c2c(oc3ccc(NS(=O)(=O)c4cccs4)cc23)C1` in CBX7 inh has 0.99
`COc1cc(C)nc(Nc2nc(C)c3ccc(C)cc3n2)n1` in CBX7 inh has 1
`CN(C(=O)c1cc2c(n(-c3ccccc3)c1=O)CC(C)(C)CC2=O)c1ccccc1` in CBX7 inh z-score has -0.95

These rows are one share of the data; rates above refer to the full screens.
